GLA inh pH 4.5: qHTS Assay for Inhibitors of Human alpha-Galactosidase at pH 4.5 | 230,000 tested, under 10 active | purified enzyme, 4-MU-alpha-Gal fluorescence, pH 4.5 | Alpha-galactosidase A (Homo sapiens), P06280 | activity change, negative = inhibition, % at 105 µM; inconclusive = small, poorly fitted or top-dose-only inhibition, or a rising curve; inactive = flat fitted curve, though single readings scatter; no compound was filed as active;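 note: 0% = full activity with enzyme and -100% = basal without enzyme; dose as in the result columns while the protocol names 77 µM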
Target sequence (P06280 whole entry, looked up): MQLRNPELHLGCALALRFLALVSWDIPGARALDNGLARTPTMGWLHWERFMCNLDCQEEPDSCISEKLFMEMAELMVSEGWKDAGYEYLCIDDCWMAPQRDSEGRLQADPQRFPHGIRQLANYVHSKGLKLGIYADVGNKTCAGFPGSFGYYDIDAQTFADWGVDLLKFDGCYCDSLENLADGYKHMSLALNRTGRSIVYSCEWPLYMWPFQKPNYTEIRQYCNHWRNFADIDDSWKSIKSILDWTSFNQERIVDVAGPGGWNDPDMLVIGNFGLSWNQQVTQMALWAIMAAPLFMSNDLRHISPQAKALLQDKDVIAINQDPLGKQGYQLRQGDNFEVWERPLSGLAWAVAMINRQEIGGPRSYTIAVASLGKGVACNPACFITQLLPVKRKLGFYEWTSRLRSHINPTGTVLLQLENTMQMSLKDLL
Rango-impB inh: qHTS Assay for Inhibitors of Rango (Ran-regulated importin-beta cargo) - Importin beta complex formation | Importin subunit beta-1 (Homo sapiens), Q14974 | Rango CFP/YFP FRET sensor + importin beta, 45 min | Potency, µM (series often up to 92.2 µM), for inactives: at the top dose inhibition of complex formation | actives 0.031% (n = 340,000) | AID 540263, 2011; active = rising FRET ratio curve, often small or poorly fitted; inconclusive = mostly compound fluorescence or quenching in the first reads; inactive = flat curves in all reads;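 note: potency is the fitted concentration of half-maximal effect; 0% = DMSO wells and 100% = buffer wells lacking importin beta; nearly all actives have a fitted effect of over 15% in size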
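FRET biosensor Rango (snurportin 1 IBB between N-terminal EYFP and C-terminal Cerulean), 50 nM in PBS/1 mM DTT/0.02% Tween-20/0.1% BSA, preincubated 5 min RT with compound; 0.125 microM importin beta added, 45 min RT, CFP/YFP FRET ratio read.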
Rango release inh: qHTS Assay for Inhibitors of RanGTP induced Rango (Ran-regulated importin-beta cargo) - Importin beta complex dissociation; actives 0.071% (n = 340,000); Snurportin-1 (Homo sapiens) + GTP-binding nuclear protein Ran (Homo sapiens) + Importin …; AID 540253, 2011; Potency, µM (top dose mostly 46.1 µM), without a hit: at the top dose activity change, negative = inhibition; Biochemical FRET Rango-importin beta, RanGTP-induced dissociation; active means falling FRET ratio curve, often poorly fitted, with flat reads before Ran was added; inconclusive means other falling curves, or compound fluorescence or quenching; inactive means flat or rising ratio curve;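 note: potency is the fitted concentration of half-maximal effect; % of control where 0% means no effect; nearly all actives have a fitted effect of over 45% in size; -100% = wells without RanGTP and RCC1; the record marks most hits as doubtful in a second field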
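Compounds preincubate 5 min with complex of recombinant Rango and importin beta in PBS with 1 mM DTT. Ran (0.6 uM) loaded with 2 mM GTP plus 0.2 uM RCC1 starts dissociation; FRET is recorded 45 min later.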
miR-21 FLuc: qHTS Assay for Modulators of miRNAs and/orActivators of miR-21; 340,000 tested, under 10 active; HeLa miR-21 FLuc reporter, luciferase, 48 h; AID 2288, 2010; Potency, µM (doses to about 38.3 µM), inactives show at the highest dose reporter change, positive = more light; active = well fitted rising curve with a large enough effect; inconclusive = small, poorly fitted or top-dose-only effect; inactive = no such curve, though single readings can be large or run the other way;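 note: % of control where 0% means no effect; miR-21 action dims this reporter so a rising signal means less miR-21 action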
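HeLa cells stably expressing CMV-driven firefly luciferase with a downstream miR-21 binding sequence, endogenously expressing miR-21, were treated with titrations (up to about 40uM final) for 48 hours at 37 degree Celsius. Luciferase luminescence was read after lysis.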
The depositor's hits bear a star; ? = inconclusive; . = not tested or not shown; & = joins results of further samples. Not all compounds are listed, so the mix of outcomes need not match the whole.

GLA inh pH 4.5,Rango-impB inh,Rango release inh,miR-21 FLuc,SMILES
1.0,-0.3%,3.0%,8.5%,O=C(Nc1ccccc1)c1ccc(=O)n(Cc2cccc(Cl)c2)c1
1.3,-0.6%,12.3%,-3.4%,O=C(Cc1ccc(Cl)cc1)NNC(=S)NC(=O)c1cccs1
.,1.2%,-5.2%,.,COc1ccc(C(CNC(=O)COc2ccccc2C)N2CCCCC2)cc1 (centres undefined)
5.9,0.9%,-19.1%,-1.9%,C=CCn1c(N)cc(=O)nc1SCC(=O)Nc1ccc2ccccc2c1
1.3,-4.4%,23.8%,-2.0%,COc1ccc(-c2c3c(=O)n(C)c(=O)n(C)c3cn2-c2ccc(O)cc2)cc1
2.5,-0.3%,-0.9%,-6.5%,COc1ccc(-n2c(Cc3cccn3C)nnc2SCC(N)=O)cc1
-26.9,0.8%,0.4%,-3.5%,COc1ccc(OC)c(N(CC(=O)N2CCc3ccccc3C2)S(C)(=O)=O)c1
0.6,-0.6%,-3.5%,-5.9%,Fc1cccc(NC(=S)NCCCN2CCOCC2)c1
-5.1,1.2%,6.7%,-0.2%,O=C1NC(Cc2c[nH]c3ccccc23)C(=O)N1CCOc1ccc(F)cc1 (centres undefined)
5.9&7.7&5.8,0.4%,22.0%,-16.5%,CCCSc1ccc2nc(NC(=O)OC)[nH]c2c1
4.0,-3.6%,0.6%,-1.0%,Cc1ccc(S(=O)(=O)NC(=O)N2CCCC(C)(C)C2)cc1
-11.3,1.3%,5.5%,4.3%,CS(=O)(=O)c1ccc2nc(NC(=O)CN3CCN(Cc4ccccc4)CC3)sc2c1

The results go on:
GLA inh pH 4.5,Rango-impB inh,Rango release inh,miR-21 FLuc,SMILES
.,2.8%,-20.0%,.,CCCn1c(N)c(C(=O)CN(C)CC(=O)Nc2c(Cl)cccc2Cl)c(=O)[nH]c1=O
-3.5,.,.,-0.4%,CCSc1ncnc2c1sc1nc(-c3ccco3)c3c(c12)CC(C)(C)OC3
.,-0.8%,0.1%,2.5%,CC1CCN(C2CCN(S(=O)(=O)c3ccc(C(F)(F)F)cc3)CC2)CC1
-6.6,-0.5%,-12.7%,1.1%,Cc1nn(-c2ccc(Cl)cc2)c2[nH]c(=O)c(CNCc3ccc4c(c3)OCO4)cc12
1.4,0.1%,1.9%,-5.4%,Nc1cc(Cl)ccc1C(=O)OCC(=O)NC(=O)NCc1ccccc1
1.7,-5.4%,-9.2%,-44.5%,O=C(O)/C=C\C(=O)Nc1ccccc1C#Cc1ccccc1
-4.1,-0.5%,-10.4%,-0.1%,O=C(Nc1nc2ccccc2n1CCOc1ccccc1)c1ccco1
-2.9,0.3%,-7.8%,-55.3%,CC(C)c1ccc(-c2nnc(N)s2)cc1
.,1.2%,-2.4%,-65.6%,NC(=O)c1ccccc1OCc1nc2ccccc2s1
?,-0.1%,-6.1%,-49.8%,COc1ccc2nc(N3CCOCC3)cc(C)c2c1
.,4.5%,3.0%,-2.8%,COc1ccc(NS(=O)(=O)c2ccc3[nH]c(=O)[nH]c3c2)cc1OC
-12.9,.,.,-4.6%,O=C(NC1CCCCCC1)c1c(O)c2cccc3c2n(c1=O)CCC3

Additional compounds follow.
GLA inh pH 4.5,Rango-impB inh,Rango release inh,miR-21 FLuc,SMILES
6.5,?,-5.9%,0.0%,CC(=O)Nc1ccc(C(=S)NCc2ccco2)cc1
1.1,2.8%,2.1%,-2.2%,CCC(=O)c1c(NCCc2ccccc2)cc(C)oc1=O
.,0.3%,-6.1%,-68.2%,O=C(Nc1ncccc1Cl)c1cc2ccccc2o1
.,1.8%,-7.5%,.,COC(=O)[C@H](C)N(Cc1ccc(Cl)c(Cl)c1)S(=O)(=O)CCNC1CCCC1
-8.3,-2.4%,36.1%,-31.1%,COc1cc(N=c2c([N+](=O)[O-])nn(-c3ccc4c(c3)OCCO4)n2O)cc(OC)c1
-4.1,1.8%,1.8%,-31.9%,COc1ccc2oc(=O)c(C(=O)Nc3ccccc3O)cc2c1
.,4.1%,-6.5%,.,CC(=O)Nc1ccc(NC(=O)C(C)OC(=O)c2c(C)nn(-c3ccccc3)c2Cl)cc1 (centres undefined)
.,-0.2%,0.9%,-2.2%,COc1ccc(C(=O)NNC(=O)C(=O)N2CCCCC2)cc1OC
.,-0.1%,7.1%,.,Cc1ccccc1S(=O)(=O)NC(=NCc1ccc(F)cc1)c1ccccc1
3.1,-3.1%,-0.3%,-0.5%,CC1CN(C2CCN(C(=O)c3cccc(Cl)c3)CC2)CC(C)O1 (centres undefined)
-2.3,2.7%,-2.0%,-7.6%,CCOC(=O)c1c(NC(=O)c2ccc(N3C(=O)C4C5C=CC(C5)C4C3=O)cc2)sc2c1CCCC2 (centres undefined)
-21.7,11.4%,-5.4%,0.5%,CN1/C(=C\C(=O)Nc2ccc(F)cc2)C(C)(C)c2ccccc21

One compound at a time, as listed above:
Results for `CC(=O)Nc1ccc(NC(=O)C(C)OC(=O)c2c(C)nn(-c3ccccc3)c2Cl)cc1` (centres undefined) = GLA inh pH 4.5 = .; Rango-impB inh = 4.1%; Rango release inh = -6.5%; miR-21 FLuc = .
Results for `COc1cc(N=c2c([N+](=O)[O-])nn(-c3ccc4c(c3)OCCO4)n2O)cc(OC)c1` = GLA inh pH 4.5 = -8.3; Rango-impB inh = -2.4%; Rango release inh = 36.1%; miR-21 FLuc = -31.1%
Results for `CCC(=O)c1c(NCCc2ccccc2)cc(C)oc1=O` = GLA inh pH 4.5 = 1.1; Rango-impB inh = 2.8%; Rango release inh = 2.1%; miR-21 FLuc = -2.2%

Arranged by value in Rango-impB inh (largest number first): three from the list above
GLA inh pH 4.5,Rango-impB inh,Rango release inh,miR-21 FLuc,SMILES
-21.7,11.4%,-5.4%,0.5%,CN1/C(=C\C(=O)Nc2ccc(F)cc2)C(C)(C)c2ccccc21
.,1.8%,-7.5%,.,COC(=O)[C@H](C)N(Cc1ccc(Cl)c(Cl)c1)S(=O)(=O)CCNC1CCCC1
.,-0.2%,0.9%,-2.2%,COc1ccc(C(=O)NNC(=O)C(=O)N2CCCCC2)cc1OC

Other entries.
GLA inh pH 4.5,Rango-impB inh,Rango release inh,miR-21 FLuc,SMILES
0.7,-2.9%,-8.1%,10.9%,COC(=O)c1c(NC(=O)/C=C/C(=O)O)sc(Cc2ccccc2)c1C
.,1.7%,1.3%,.,COc1ccc(NC(=O)COc2cccc3c2CCNC3=O)cc1
4.2,13.6%,-13.5%,-8.5%,C=CCNCCCCOc1ccc(C)cc1[N+](=O)[O-]
.,-1.2%,-1.6%,1.6%,C[C@@H](NC(=O)[C@@H]1Cc2ccccc2CN1C(=O)OC(C)(C)C)C(=O)NCc1ccco1
8.3,-0.1%,-1.3%,4.1%,CCc1ccc(OCc2nnc(SCc3ccc(C(=O)O)cc3)o2)cc1
-1.6,-0.6%,-5.5%,-8.7%,COC(=O)C1=C(C)N(Cc2ccc(C)cc2)C(=O)/C1=C\c1cc(OC)c(OC)c(OC)c1
2.5,7.2%,-2.9%,-40.3%,CC(C)(C)Sc1ccc2nc3c(n2c1)CCCC3
3.1,-1.7%,1.8%,-9.4%,COc1ccc(/C=C/C(=O)Nc2ccccc2Cl)cc1S(=O)(=O)N1CCOCC1
.,1.7%,-4.2%,-8.2%,c1cc2c(cc1CN1CCN(C3CCCCCC3)CC1)OCO2
1.6,-1.3%,0.2%,-6.9%,Cc1ccc(C(c2sc3nc(C)nn3c2O)N2CCN(c3ccccc3F)CC2)cc1 (centres undefined)
-9.4,0.0%,5.5%,27.9%,OCC1(Cc2cccc(C(F)(F)F)c2)CCN(Cc2cc(F)cc(F)c2)CC1
.,?,?,-4.7%,O=Cc1ccc(N2N=C(c3ccccc3)CC2c2ccccc2)cc1 (centres undefined)

Following part
GLA inh pH 4.5,Rango-impB inh,Rango release inh,miR-21 FLuc,SMILES
4.2,2.5%,-1.9%,1.5%,O=C(Cn1cnc2ccccc2c1=O)NCC1COc2ccccc2O1 (centres undefined)
-2.0,1.2%,-5.4%,8.1%,Cc1cccc(C)c1Nc1nnc(SCC(=O)Nc2cc(S(=O)(=O)N3CCCCC3)ccc2Cl)s1
-8.1,0.0%,-0.4%,-25.6%,CCc1cc2c(=O)c(-c3ccc4c(c3)OCCO4)coc2cc1OS(C)(=O)=O
.,0.0%,15.1%,1.6%,CCC(=O)Nc1ccc(S(=O)(=O)N2CCc3ccccc32)cc1
-12.0,-2.2%,-13.1%,-3.0%,COc1cc(/C=N/Nc2ccccn2)cc(OC)c1O
.,-0.3%,-6.5%,-0.9%,CCOC(=O)CCNC(=O)N1CCCC(Cc2ccccc2)(C(=O)OCC)C1 (centres undefined)
.,-3.3%,21.7%,.,CC(NC(=O)CCNC(=O)c1ccc(Br)cc1)c1ccc(-n2ccnc2)cc1 (centres undefined)
-12.8,0.6%,-1.3%,17.2%,c1ccc(-n2c(SCc3nc(-c4cccs4)no3)nnc2-c2ccco2)cc1
.,6.0%,13.1%,.,CN1C2Cc3c(n(C)c4ccccc34)C1CC=C2CO (centres undefined)
-4.4,?,?,-76.2%,O=C(O)c1ccc(N=Nc2c(O)[nH]c3cc(Cl)ccc23)cc1
2.7,1.6%,-5.7%,10.7%,S=C(NC1CCCCC1)NN(c1ccccc1)c1ccccc1
.,-0.5%,0.2%,-6.9%,N/C(=N\OC(=O)C1CCCCC1)c1cccc(Br)c1

(listing goes on)
GLA inh pH 4.5,Rango-impB inh,Rango release inh,miR-21 FLuc,SMILES
-7.4,-0.1%,-4.7%,3.4%,COc1ccc(S(=O)(=O)Nc2cc(C)nn2-c2ccccc2)cc1
6.2,?,?,-2.1%,Cc1ccc(NC(=O)/C(C#N)=C/c2cn(CC(=O)NCc3ccco3)c3ccccc23)cc1C
1.6,-3.7%,-7.2%,-7.8%,O=C(CSc1nnc2c(Cl)cc(Cl)cn12)N1CCOCC1
.,1.1%,12.0%,.,CN(Nc1cccc(Cl)c1)c1cccc(Cl)c1
-7.9,-1.0%,0.6%,-6.0%,Clc1cc(Sc2ccc(Br)cc2)nnc1-c1ccccc1
.,4.2%,-0.7%,.,Cc1ccc(CNC(=O)CN(C(=O)N2CCN(C)CC2)S(=O)(=O)c2ccc(C)cc2)cc1
6.6,0.4%,7.3%,-4.4%,Nc1nc(SCC(=O)c2cc(F)ccc2F)n[nH]1
1.1,3.2%,-0.7%,3.1%,O=P(OC1CCCCC1)(OC1CCCCC1)C(O)c1ccccc1 (centres undefined)
.,-0.5%,-8.0%,-2.8%,O=C(c1ccc(-n2cncn2)c([N+](=O)[O-])c1)N1CCN(S(=O)(=O)c2ccc(Cl)cc2)CC1
12.4,-0.5%,-7.1%,-1.1%,CCn1c(SCC(N)=O)nnc1-c1ccco1
-4.0,4.4%,0.3%,-0.7%,COC(=O)c1cccc(N2C(=O)C(Cl)=C(N3CCOCC3)C2=O)c1
15.0,-2.3%,9.2%,-2.5%,Cc1cc(C(=O)Nn2cnnc2)cs1

(listing goes on)
GLA inh pH 4.5,Rango-impB inh,Rango release inh,miR-21 FLuc,SMILES
.,1.9%,-14.1%,.,COc1ccc(C(=O)Nc2cccc(-c3ccc(N4CCOCC4)nn3)c2)cc1
-16.9,3.9%,5.5%,7.3%,CCOC(=O)c1ccc(NC(=O)CC2C(=O)N(c3ccc(F)cc3)C(=O)N2CCC(C)C)cc1 (centres undefined)
.,-0.3%,-8.3%,.,O=C(CN1C(=O)NC2(CCOc3ccccc32)C1=O)NCc1ccc(F)cc1 (centres undefined)
.,0.3%,-5.7%,-0.2%,COc1ccc(S(=O)(=O)N2CCC(C)CC2)cc1N(C)S(=O)(=O)c1ccccc1
0.6,3.4%,-8.9%,-6.9%,C=CCn1c(SCc2ccc3c(c2)OCO3)nc2scc(-c3ccco3)c2c1=O
2.4,11.7%,12.9%,-9.0%,CCCC(=O)OC(C(=O)Nc1cc(C(F)(F)F)ccc1Cl)c1ccccc1 (centres undefined)
-7.3,.,.,-7.7%,CC(=O)C1=C(O)C(=O)N(Cc2cccnc2)C1c1ccc(C)cc1 (centres undefined)
